Arbovirus anti: arbovirus infection inhibition. arbovirus infection cell-based antiviral screen. 200,000 tested, 0.37% active. AID 1251. inhibition, % at 10 µM;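 active = inhibition from about 30%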;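 also: bluetongue infection of BSR cells; cell survival read as ATP light after 72 h; 0% = infected wells without compound and 100% = uninfected wells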
Mtb H37Rv: M. tuberculosis H37Rv growth inhibitors, H37Rv strain (AID 1626) | 220,000 tested, 0.95% active | M. tuberculosis H37Rv growth inhibition; higher % means a stronger effect | one-dose inhibition, % at 10 µM; IC50 in µM for titrated hits;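 active = confirmed in a dose series; inconclusive = inhibition above 80% but not taken into the dose series; inactive = below 80% or under 30% at every dose of the series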;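 also: bacteria incubated seven days before Alamar blue readout; 0% = bacteria only wells and 100% = bacteria with antibiotic wells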
YopH inh: blocks Yersinia enterocolitica YopH tyrosine phosphatase; fluorescence Ex485/Em525; inhibition, %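 (about 10 µM by stock and volumes)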; 140,000 tested, 0.16% active;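 active = inhibition of 50% or more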;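 also: controls were vehicle for no effect and minimum signal wells for full effect; inactives centre near -20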
RecA intein inh: inhibitors of M. tuberculosis RecA intein splicing; 290,000 tested, 0.75% active; inhibition, %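 (about 9 µM by stock and volumes)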; P9WHJ3; cell-free RecA intein splicing, fluorescence; in the data active = inhibition above about 30%; inconclusive = no clear call, values can overlap the other calls;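 also: 0% = vehicle wells and 100% = reference inhibitor control wells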
Target sequence (P9WHJ3 whole entry, looked up): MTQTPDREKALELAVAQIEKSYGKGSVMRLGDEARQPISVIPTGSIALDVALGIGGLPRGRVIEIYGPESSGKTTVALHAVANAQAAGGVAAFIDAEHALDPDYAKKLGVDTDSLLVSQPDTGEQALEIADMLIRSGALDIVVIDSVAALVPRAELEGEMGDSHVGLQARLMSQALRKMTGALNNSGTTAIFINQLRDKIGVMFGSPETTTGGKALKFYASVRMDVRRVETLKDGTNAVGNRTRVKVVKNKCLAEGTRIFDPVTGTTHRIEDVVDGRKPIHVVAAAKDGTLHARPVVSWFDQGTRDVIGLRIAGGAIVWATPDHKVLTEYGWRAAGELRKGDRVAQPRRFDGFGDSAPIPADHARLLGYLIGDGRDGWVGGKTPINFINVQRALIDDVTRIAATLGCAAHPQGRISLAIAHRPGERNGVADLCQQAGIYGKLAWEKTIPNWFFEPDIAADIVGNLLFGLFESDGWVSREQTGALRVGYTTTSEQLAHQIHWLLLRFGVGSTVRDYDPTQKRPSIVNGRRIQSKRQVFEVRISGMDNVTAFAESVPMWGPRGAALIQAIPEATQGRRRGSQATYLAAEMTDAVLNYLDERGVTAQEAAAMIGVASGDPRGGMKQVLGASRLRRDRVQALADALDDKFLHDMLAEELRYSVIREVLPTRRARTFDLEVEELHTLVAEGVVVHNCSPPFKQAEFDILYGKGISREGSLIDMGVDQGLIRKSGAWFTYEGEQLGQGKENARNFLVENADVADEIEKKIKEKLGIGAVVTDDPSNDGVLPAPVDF
Mtb betalactam: beta-lactam sensitization of Mtb H37Rv | M. tuberculosis H37Rv growth with meropenem, percent inhibition; hits of this screen are not shown here | inhibition, % at 25 µM | 330,000 tested, 0.27% active | AID 434955;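 active = about 74% or more and at least 40 points above the plate without the antibiotic, then above 30% in a dose series; inconclusive = first-round hits that could not be retested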;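 also: growth measured after seven days incubation then overnight dye step; 0% = bacteria only wells and 100% = bacteria with antibiotic; twin plates without the antibiotic show which effects depend on it; some results filed as inactive read as strong as hits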
* marks the source's active call; other numbers are inactive results; ? = inconclusive; nt = not tested or not shown. A portion of the library; rates above refer to the full screens.

Results follow in this order: Arbovirus anti, Mtb H37Rv, YopH inh, RecA intein inh, Mtb betalactam
CCc1ncc(C(O)c2cccc(OC)c2OC)n1C (configuration not stated)
  5, -1%, 0, 1.0, -5
O=C(NC1CCCCC1)Oc1cccc2ccccc12
  -3, -1%, nt, -0.6, 1
O=C(CN(Cc1ccccc1)S(=O)(=O)c1ccccc1)N/N=C/c1ccc2c(c1)OCO2
  -26, -4%, -16, 9.4, 4
O=[N+]([O-])c1ccccc1/C=C\C=N\N1CCN(c2ccccc2)CC1
  -33, 1%, nt, 5.4, -4
Oc1ccccc1/C=N/n1c(-c2cccs2)n[nH]c1=S
  7, -2%, -33, -2.5, -8
O=C(Nc1ccccc1)c1ccccc1N=Cc1ccccc1O
  -7, -10%, -37, -1.7, -5
COc1ccc(C(=O)NC2CCCCCC2)cc1OC1CCN(C(C)=O)CC1
  nt, nt, nt, -5.8, 1
Cc1ccc(-c2nn(C)c(=O)c3ccccc23)cc1CNC(=O)CSc1nc2ccccc2o1
  -2, -3%, -22, -0.1, -11
COc1cc(NC(=O)c2ccccc2)ccc1NC(=O)Cc1ccccc1
  nt, nt, nt, 1.3, -2
CC(C)C(NC(=O)OC(C)(C)C)C(=O)NC(CCC(=O)OCc1ccccc1)C(N)=O (configuration not stated)
  8, 2%, nt, 0.6, -5
Cc1cc(SCC(=O)c2cccc([N+](=O)[O-])c2)nc(=O)[nH]1
  nt, nt, nt, -5.0, -16
Clc1ccccc1-c1ncnc2ccc(Br)cc12
  -5, 0%, nt, 1.1, -6
Cc1cc(O)c(C=O)c2c1C(=O)Oc1c(CO)c(O)c3c(c1O2)C(O)OC3=O (configuration not stated)
  1, -14%, nt, nt, -7
COc1ccc(C(=O)N(Cc2ccccc2)c2cccc(C)c2)c(OC)c1OC
  nt, nt, nt, 6.1, 2
CN1C(C(=O)NCc2cccc(Br)c2)CC2Cn3c(nc4cc(Cl)c(Cl)cc43)C21 (configuration not stated)
  nt, 5%, nt, 2.6, 51
CN(CCC1CCOCC1)C(=O)C1CCC(=O)N(CCc2ccc(Cl)cc2)C1 (configuration not stated)
  nt, nt, nt, 0.7, -4
COc1ccc(C(=O)C(C)N(C(=O)c2ccc(Cl)cc2Cl)N2C(=O)C3C4C=CC(C4)C3C2=O)cc1 (configuration not stated)
  -3, -9%, -42, 7.2, -7
COc1ccc(NC(=S)N(CCCN2CCCC2)Cc2cccs2)cc1
  -4, 1%, -7, 1.4, -11
Cc1nc(SCc2c(Cl)cccc2Cl)nc(OC(=O)N(C)C)c1C
  nt, 8%, nt, 8.0, -1
O=C(CCn1cccn1)Nc1ccc2c(c1)OCCO2
  nt, nt, nt, 0.5, -3
Cc1cc(C(=O)Nc2cccc(C)c2C)c2ccccc2n1
  nt, nt, nt, 1.0, 5
Cc1cccc(NC(=S)NNC(=S)NCc2ccccc2)c1
  8, -1%, -15, -5.6, -5
COc1ccc(S(=O)(=O)N2CCCCCC2)cc1C(=O)N(C)CC(=O)Nc1ccccc1Br
  nt, nt, nt, -0.8, -3
Cc1cc(C)n(-c2nc3ccccc3s2)n1
  2, -3%, nt, 0.2, -3
CCOc1ccccc1C(=O)OCC(=O)Nc1cc(Cl)ccc1Oc1ccccc1
  6, 8%, -63, -3.8, 5
CN(C)CCCn1c(=O)n(C2CCCCC2)c(=O)c2c3c(sc21)CCCCC3
  nt, nt, nt, 4.4, 96
CC1CC(C)(C)NC(=S)N1CCC(=O)N1c2ccccc2CC1C (configuration not stated)
  7, -3%, nt, -0.1, 2
CSc1nnc(Nc2ccccc2C)s1
  -1, -6%, -11, -2.0, 1
Cn1c(SCC(=O)O)nnc1-c1cccc(NC(=O)c2cccc3ccccc23)c1
  nt, -8%, nt, 1.1, -6
CCOCCCNC(=O)C1CCN(Cc2ccc(OCc3ccccc3)c(OC)c2)CC1
  nt, nt, nt, 3.7, -1
CC(=O)c1ccc(N=C2SCCCN2C(=O)C2CCCCC2)cc1
  -3, 0%, nt, 1.4, 10
COc1ccc(NC(=O)CCCN2C(=O)C(c3ccccc3)Oc3cccnc32)cc1OC (configuration not stated)
  nt, nt, nt, 1.2, 4
O=C1NCCN(Cc2cccc(Oc3ccccc3)c2)C1CC(=O)N1CCCCO1 (configuration not stated)
  1, 5%, nt, -0.9, 10
C/C(=N\NC(=O)C(NC(=O)c1ccccc1)C(C)C)c1ccccc1 (configuration not stated)
  4, -11%, -3, -0.3, -8
COc1ccc(C2(C(=O)N3CCC(n4nc(-c5ccccc5)oc4=O)CC3)CC2)cc1
  nt, nt, nt, 0.0, 8
COc1ccc(CC(=O)N2CCc3cc(OC)c(OC)cc3C2)cc1
  nt, nt, nt, 3.8, -5
O=[N+]([O-])c1ccc(N2CCN(Cc3ccc([N+](=O)[O-])o3)CC2)cc1
  nt, nt, nt, -3.9, 100
CCc1cn([C@H]2C[C@H](O)[C@@H](CO)O2)c(=O)[nH]c1=O
  1, -2%, 5, -0.2, -1
CCCCn1c(O)c(C(CC)=Nc2cccc(C(=O)O)c2)c(=O)[nH]c1=O
  8, 1%, -94, -1.2, -1
C/C(CC(=O)NCc1ccco1)=N\NC(=O)Cc1ccc(-c2ccccc2)cc1
  -11, -15%, -28, 5.3, 4
CCOC(=O)N1CCN(c2cc(N3CCOCC3)c(F)cc2[N+](=O)[O-])CC1
  0, 3%, nt, -0.2, -3
O=C(NCc1ccc2c(c1)OCO2)c1cccc(C(=O)NCc2ccc3c(c2)OCO3)c1
  -7, 6%, -37, -0.1, 4
CC1Cc2ccccc2N1C(=O)COC(=O)c1ccc(O)cc1 (configuration not stated)
  nt, 2%, nt, 1.3, -1
CCOc1ccccc1Nc1nnc(SCC(=O)NC(=O)c2cccn2C)s1
  3, -1%, -29, -0.8, -1
COc1ccc(S(=O)(=O)NC(Cc2ccccc2)C(=O)O)cc1 (configuration not stated)
  nt, nt, nt, -3.5, -5
c1ccc(-c2ccccc2-c2nc(-c3cccnc3)no2)cc1
  -7, 9%, -22, 12, 39
COc1ccc(NC(=O)CC2Nc3ccccc3NC2=O)c([N+](=O)[O-])c1 (configuration not stated)
  4, 1%, nt, 2.0, 2
CC(CC(=O)O)Nc1ccccc1O (configuration not stated)
  -5, -2%, nt, 3.4, 2
CN1CCN(CCC(=O)N/N=C/c2ccccn2)CC1
  nt, nt, nt, -1.4, -7
Oc1ccc(/C=N/NC(=S)Nc2cccnc2)c(O)c1
  -35, -2%, -38, -3.9, 7
COc1ccc(S(=O)(=O)N2CCCCC2)cc1NC(=O)CN1CCN(C(C)=O)CC1
  16, -3%, nt, 4.4, -2
COC(=O)CN(C#N)c1nc(OC)nc(N(C)C)n1
  0, -8%, -44, nt, 8
COc1ccccc1C1CCN(Cc2cccc(C(=O)N3CCC(O)CC3)c2)CC1
  nt, nt, nt, -0.4, 3
CC(CC(=O)Nc1nncs1)c1ccccc1 (configuration not stated)
  0, -11%, -27, 0.4, -3
Cc1ccc2c(c1)N(Cc1cccc(F)c1)C(=O)C(C)O2 (configuration not stated)
  nt, nt, nt, 1.0, 0
Cc1ccc(C)c(NC(=O)CSc2nnc3n2CCCCC3)c1
  0, -1%, -22, -2.3, -3
CCOc1ccc(OCC)c(S(=O)(=O)NCc2ccccc2)c1
  nt, nt, nt, -5.5, -7
CCCOC(=O)c1ccc(NC(=O)c2c(Cl)ccc(Cl)c2OC)cc1
  -18, 76%, -19, 13, 96
CC1Cc2cc(S(=O)(=O)NCCC(=O)NCc3ccc(F)cc3)ccc2N1C(=O)C1CC1 (configuration not stated)
  nt, nt, nt, 3.0, 0
COc1cc(/C=N/NC(=O)c2cccnc2)ccc1OS(=O)(=O)c1cc(C)ccc1C
  -7, 11%, -2, 6.2, 46

Remaining list, next part.
Results follow in this order: Arbovirus anti, Mtb H37Rv, YopH inh, RecA intein inh, Mtb betalactam
CCCNC(=O)CS(=O)(=O)Cc1nc(-c2ccccc2C)oc1C
  2, -1%, -10, -0.8, -1
O=C(CN1C(=O)c2ccccc2S1(=O)=O)NCc1cccs1
  nt, nt, nt, -1.5, 4
CC(C)[C@H](NC(=O)C1CCN(S(=O)(=O)c2ccc(F)cc2)CC1)C(=O)N1CCCCCC1
  nt, nt, nt, 1.5, -1
COc1cc(C2C(C(=O)c3ccc(C)o3)=C(O)C(=O)N2Cc2ccccc2)ccc1O (configuration not stated)
  nt, nt, nt, -1.3, -9
CC(=O)N(Cc1cccs1)Cc1cc2ccc(C)c(C)c2nc1Cl
  -4, -2%, nt, 4.1, -5
Cc1ccc(S(=O)(=O)Nc2nc(C)cc(N/N=C/c3ccc(O)cc3)n2)cc1
  -10, -3%, -24, -1.5, 0
CC(C)N1CC(C(=O)Nc2ccc(Cl)c(Cl)c2)CC1=O (configuration not stated)
  nt, nt, nt, 0.6, 1
CCCOC(=S)NC(=O)c1sc2ccccc2c1Cl
  4, 5%, -22, 7.7, 43
Cc1cccc(C)c1N1CC(=O)N(c2c(C)cccc2C)CC1=O
  10, -7%, -3, -0.5, -6
CCOC(=O)/C=C/CN(C(=O)OC(C)(C)C)S(=O)(=O)N1CC=CC1
  nt, 7%, nt, 1.8, -1
O=C(NCCCN1CCOCC1)c1ccc2c(c1)N(Cc1ccccc1F)C(=O)c1ccccc1S2=O (configuration not stated)
  nt, nt, nt, 0.3, 1
O=c1[nH]c2c(c3c1CCCC3)CCCC2
  4, -3%, -28, 0.1, -5
Cc1nn(-c2ncc(C(F)(F)F)cc2Cl)c(=O)n1-c1ccccc1
  -3, ?, 3, -1.8, -4
Cc1cccc(-n2nc(C)cc2N)c1
  -7, -8%, -4, 3.1, -6
Cc1cc(C)nc(Nc2n[nH]c(-c3cccc4ccccc34)n2)n1
  4, nt, -114, 3.7, 4
COCCN(C(=O)COC(=O)c1sccc1C)c1c(N)n(Cc2ccccc2)c(=O)[nH]c1=O
  nt, nt, nt, 1.9, -7
COc1ccc(CCNC(=O)Nc2ccc([N+](=O)[O-])cc2)cc1OC
  4, 5%, nt, -0.8, -8
Cc1cccc(NS(=O)(=O)c2cc(NC(=O)CC(=O)c3ccc([N+](=O)[O-])cc3)ccc2C)c1
  8, 1%, nt, 5.6, nt
Cc1ccc(C(=O)NCCN2CCNC2=O)cc1
  nt, 7%, nt, 0.7, -6
CN(C)c1ccnc(N(Cc2ccccc2)Cc2ccccc2)c1C#N
  -13, 5%, -26, 15, -3

Two neighbouring compounds from above, quoted:
Results follow in this order: Arbovirus anti, Mtb H37Rv, YopH inh, RecA intein inh, Mtb betalactam
CCCNC(=O)CS(=O)(=O)Cc1nc(-c2ccccc2C)oc1C
  2, -1%, -10, -0.8, -1
O=C(CN1C(=O)c2ccccc2S1(=O)=O)NCc1cccs1
  nt, nt, nt, -1.5, 4

Next entries follow.
Results follow in this order: Arbovirus anti, Mtb H37Rv, YopH inh, RecA intein inh, Mtb betalactam
COc1ccc(C(=O)CCc2ccccc2O)c(OC)c1
  nt, nt, nt, 2.8, 0
CC(C)OC(=O)CSc1nnc(-c2ccco2)n1N
  1, nt, 1, 2.0, -8
COC(=O)C1=CN(Cc2ccc(OC)cc2)C=C(C(=O)OC)C1c1ccc(O)c(OC)c1
  nt, nt, nt, -6.3, -3
O=C(O)CC1(CC(=O)NCc2ccc(C(F)(F)F)cc2)CCCCC1
  nt, -2%, nt, 4.2, -6
O=C(NNC(=O)C12CC3CC(CC(Cl)(C3)C1)C2)c1ccncc1
  nt, nt, nt, 0.2, -12
CC1=C/C(=N\N=C2\NC(=O)C(CC(=O)Nc3ccccc3F)S2)CC(C)(C)C1 (configuration not stated)
  2, 32%, nt, 2.4, 10
CC(C)COC(=O)/C(C#N)=C/c1cn(Cc2ccccc2)c2ccccc12
  4, 3%, -20, -5.2, -6
COc1ccc(C(=O)/C=C/c2ccc(O)cc2)c(O)c1CC=C(C)C
  -40, 9%, -32, 23, nt
O=C(CSc1nnc2c(Cl)cc(C(F)(F)F)cn12)NCc1ccc(F)cc1
  -5, 2%, -12, 5.8, -4
COc1ccc(NC(=O)Nc2cccc([N+](=O)[O-])c2)cc1Cl
  -8, ?, -13, -2.9, -2
COc1cc(CN2CC(C)OC(C)C2)cc(OC)c1 (configuration not stated)
  nt, 1%, -6, -0.4, -10
CC1(C)Cc2ccccc2C2=NNC(=O)C2=N1
  -29, ?, nt, 94*, 95
Cc1cc2c(c(SCC(=O)Nc3ccc(C)c(C)c3)n1)C(=O)OC2
  -2, -5%, nt, -0.7, -9
O=c1cc(O)c2sc3nc4c(c(C(F)(F)F)c3c2[nH]1)CCCCC4
  nt, 11%, nt, -7.1, -2
CN(C)C(=O)Oc1ccc(OC(=O)c2ccccc2)cc1
  8, 7%, -8, 4.4, 0
CCCN1CCC(NC2CCC(O)CC2)CC1 (configuration not stated)
  nt, nt, nt, 4.4, -2
Cc1ccc(S(=O)(=O)N2CC2(C)CCl)cc1 (configuration not stated)
  nt, -1%, nt, 27, 3
O=C(C[N+]1(CC#Cc2ccccc2)CCCCC1)c1ccccc1
  -4, -3%, nt, -3.7, 1
Cc1ccc(OCC(=O)Nc2ccc3c(c2)nc(CCN2CCN(C)CC2)n3C)cc1
  nt, -6%, nt, -0.9, 0
